# MLL AF4-AF9 inh = inhibitors of human MLL-AF4/AF9 interaction | AlphaScreen, biotin-AF4 peptide binding to FLAG-AF9 | 0.47% of 350,000 active | P42568 | AID 651704 | inhibition, % at 10 µM;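 active = every replicate reaching a set inhibition limit, whatever the replicate mean, cut at about 25% in these data; inconclusive = mean inhibition reaches that limit but some replicates miss it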;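 note: 0% = plate neutral control median and 100% = total signal loss; the record names both 10 and 1 µM as test concentration; the first replicate is given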
# Ecoli rRNA inh = selective bacterial rRNA inhibition in E. coli; AID 720706; E. coli WT GFP vs humanized-ribosome RFP mutants, fluorescence, 24 h; stronger effect = lower value; DMSO median 0, no signal -100; 1.6% of 350,000 active; GFP signal change (wild-type ribosome), % (no concentration beside the values);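 active = significant combined selectivity score with lowered wild-type GFP, culture density cut under 30%, mutant RFP and density less affected; inactive = any of these conditions unmet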; note: one replicate is shown; some compounds called inactive have numbers as strong as hits
# Vif A3G = inhibitors of Vif binding to APOBEC3G peptide, primary screen, biochemical, TR-FRET, GST-Vif 1-94, biotin-A3G peptide, dose response retest (AID 1117319); TR-FRET GST-Vif / biotin-A3G peptide binding; higher % means a stronger effect; test concentration not given here; strong numbers were not always called active; 0.57% of 260,000 active; one-dose inhibition, %; IC50 in µM for titrated hits;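 active = above the screen mean plus three standard deviations and confirmed in dose response; inconclusive = results disagree or hit not tested in dose response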;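 note: Vif residues 1-94 fused to GST binding biotinylated APOBEC3G peptide 110-148; 0% = full assay without inhibitor and 100% = GST in place of GST-Vif; retest series ran down from 100 µM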
# HNF4A DNA FP = change in binding of human HNF4 alpha to DNA. activity change, % at 10 µM. 0.3% of 360,000 active. P41235. HNF4a-FITC DNA binding, fluorescence polarization, 1 h; in the data active = activity change above about 30%, passing the limit was not always enough;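 note: controls were the assay level and a saturating level of protein; the project sought stronger binding though the title names inhibitors; some compounds called inactive have numbers as strong as hits; positive values seem to mean higher polarization but the record does not say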
# Target sequence (P41235 whole entry, looked up): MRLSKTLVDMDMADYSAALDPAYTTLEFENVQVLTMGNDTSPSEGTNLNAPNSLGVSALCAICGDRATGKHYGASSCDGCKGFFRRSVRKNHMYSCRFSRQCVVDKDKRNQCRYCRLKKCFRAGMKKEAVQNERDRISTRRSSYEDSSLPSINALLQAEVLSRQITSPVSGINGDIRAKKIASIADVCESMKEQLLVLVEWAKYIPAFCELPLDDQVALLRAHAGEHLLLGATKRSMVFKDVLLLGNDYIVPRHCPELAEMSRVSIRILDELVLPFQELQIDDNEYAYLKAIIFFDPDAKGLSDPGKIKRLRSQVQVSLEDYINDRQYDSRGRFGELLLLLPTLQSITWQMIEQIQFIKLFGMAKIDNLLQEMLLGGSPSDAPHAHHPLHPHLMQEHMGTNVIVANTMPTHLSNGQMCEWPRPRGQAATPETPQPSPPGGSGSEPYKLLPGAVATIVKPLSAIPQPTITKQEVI
# FGF22 binding = shifts melting point of recombinant human FGF22 | Q9HCT0 | recombinant FGF22 thermal shift, SYPRO orange fluorescence; percent of sucrose octasulfate shift, DMSO zero | calls only at 9.99 µM | 1.5% of 340,000 active | AID 651658;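 active = melting point raised past a set limit in the mean and every replicate; inconclusive = no clear call; three in four hits are not shown here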
# Target sequence (Q9HCT0 whole entry, looked up): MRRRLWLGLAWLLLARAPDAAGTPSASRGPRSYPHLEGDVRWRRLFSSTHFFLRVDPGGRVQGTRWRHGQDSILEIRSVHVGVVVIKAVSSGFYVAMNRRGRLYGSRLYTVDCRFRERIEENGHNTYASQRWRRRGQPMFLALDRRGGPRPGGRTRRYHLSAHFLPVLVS
# ALR inh = blocks human ALR sulfhydryl oxidase activity; P55789; purified ALR, DTT oxidation, H2O2 HRP-luminol luminescence; inhibition, % (concentration not given with the values); 3.8% of 290,000 active;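 active = mean and each replicate at 75% or more; inconclusive = only one of the two met; inactive = neither met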;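 note: stock transfer was 7.5 nL into about 7.5 µL; 0% = neutral wells and 100% = wells with inactivated enzyme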
# Target sequence (P55789 whole entry, looked up): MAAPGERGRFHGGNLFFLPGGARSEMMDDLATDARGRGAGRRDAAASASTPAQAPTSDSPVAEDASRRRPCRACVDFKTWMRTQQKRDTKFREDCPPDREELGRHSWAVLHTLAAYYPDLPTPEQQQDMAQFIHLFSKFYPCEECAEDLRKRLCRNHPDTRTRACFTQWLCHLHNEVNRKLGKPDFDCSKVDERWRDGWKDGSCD
# Ecoli growth = inhibitors of Escherichia coli growth | OD600, 23 h; stronger effect = lower value | OD600 absorbance (concentration not given with the values) | 0.21% of 330,000 active | AID 1053175;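 active = OD600 absorbance below the run mean of sample wells minus 3.6 SD, in any replicate, cut at about 0.56 in these data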;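 note: stock transfer was 300 nL into about 60 µL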
# Ecoli rRNA inh OD600 = also measured in Ecoli rRNA inh; calls as there; OD600 change, %; measured here: OD600 growth;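 optical density of the mix in the first replicate; 0 = DMSO median and -100 = no signal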
# Ecoli rRNA inh RFP = second read-out of Ecoli rRNA inh, no call of its own (marks repeat the call); RFP signal change, %; measured here: RFP humanized mutant strains;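 first replicate; 0 = DMSO median and -100 = no signal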
# * = called active by the depositor; i = inactive; ? = inconclusive; · = not tested or not shown; & = joins results of further samples. Not all compounds are listed. The share of hits here may be higher or lower than overall.
SMILES,MLL AF4-AF9 inh,Ecoli rRNA inh,Ecoli rRNA inh OD600,Ecoli rRNA inh RFP,Vif A3G,HNF4A DNA FP,FGF22 binding,ALR inh,Ecoli growth
COc1cc(NC(=O)CN2CCC(Cc3ccccc3)CC2)c(C)cc1[N+](=O)[O-],·,·,·,·,·,1.3,·,-7.9,0.704
COc1cccc(CNC(=O)c2nnn(CC(=O)Nc3cccc(C)c3)c2N)c1,-1.8,11.4,8.6,1.6,·,-3.0,i,1.9,0.695
O=C(Nc1ccccc1)c1ccc(CN2CCc3ccccc3C2)cc1,-0.7,13.1,16.1,2.1,-1.5%,-4.5,i,-10.7,0.671
CCc1cccc(C)c1NC(=O)CSc1nnc(Cc2csc(C)n2)o1,1.1,-4.0,7.4,-5.2,-3.4%,0.8,i,-4.9,0.656
CCN(CC)S(=O)(=O)c1ccc(/C=C/C(=O)OCC(=O)NCc2ccc3c(c2)OCO3)cc1,-0.7,2.7,3.1,2.7,-2.0%,-3.5,i,-3.2,0.686
CC1CCC(NC(=O)CCS(=O)(=O)c2ccc3c(c2)CC(C)N3C(=O)C2CC2)CC1 (stereo not drawn),1.0,3.4,4.4,0.2,8.0%,0.2,i,-9.6,0.7
COc1ccc(CN2CCCC(CNC(=O)c3ccc(F)cc3)C2)c(C)c1C (stereo not drawn),·,·,·,·,5.1%,2.8,·,·,0.689
O=C(c1cccc(N2C(=O)C3C4C=CC(C4)C3C2=O)c1)N1CCCc2ccccc21 (stereo not drawn),-0.6,5.2,2.7,2.9,1.9%,-3.3,i,-14.5,0.694
O=C(Cc1ncc(C(F)(F)F)cc1Cl)NNc1cccc(F)n1,-0.1,7.7,-0.6,0.1,-7.0%,-2.3,i,·,0.695
COc1cccc(CC(=O)N(CCC2=CCCCC2)c2c(N)n(Cc3ccccc3)c(=O)[nH]c2=O)c1,?,5.5,3.6,0.9,1.0%,4.4,i,·,0.691
CC(OC(=O)c1cc(=O)[nH]c2ccccc12)c1ccccc1 (stereo not drawn),-0.7,8.1,4.5,6.2,?,-5.2,i,-0.3,0.649
Cc1ccc(NC(=O)CSc2nnc3n2CCCCC3)cc1S(=O)(=O)N1CCOCC1,-13.8,-2.1,-2.8,0.0,0.6%,1.6,i,·,·
CCN1CCN(C(=O)c2ccc3c(=O)n(CCc4ccccc4)c(=O)[nH]c3c2)CC1,·,·,·,·,-2.0%,2.1,·,-1.7,0.667
O=C(Cn1cncn1)NCc1ccccc1Br,·,·,·,·,3.6%,-1.8,·,-7.5,0.663
COc1cccc(-c2ccc3n(c2=O)C[C@H]2[C@H](CO)[C@@H](C(=O)N(C)C)[C@@H]3N2Cc2cncnc2)c1,-1.6,0.6,3.4,-0.5,·,·,i,·,·
CC(C)(C)NCCCCOc1ccccc1F,-6.7,19.4,4.4,1.5,26.3%,1.9,i,0.6,0.63
Cc1ccc(CCNC(=O)C2CCN(S(=O)(=O)c3ccc4c(c3)CCC(=O)N4)CC2)cc1,-10.7,5.2,8.1,1.1,6.2%,3.7,i,-2.4,0.742
CC(C)N(CCNCc1nnc(-c2ccccc2)o1)C(C)C,?,6.0,4.2,-4.0,-3.9%,3.9,i,·,0.671
CCC(C(=O)Nc1nccs1)c1ccccc1 (stereo not drawn),·,·,·,·,18.8%,2.2,·,·,0.714
COc1ccc(CCCc2nnc(SCC(=O)NN)o2)c(C)c1,2.6,0.6,6.1,2.1,-6.7%,1.4,i,17.4,0.655
O=C(O)c1ccccc1C(=O)c1ccc(Sc2ccc(Cl)cc2)c([N+](=O)[O-])c1,-1.9,-8.0,4.5,-3.7,-5.2%,-0.5,·,·,0.702
C[C@H](CO)N1C[C@H](C)[C@@H](CN(C)C(=O)Nc2cccc3ccccc23)OCCCC[C@H](C)Oc2ccc(NS(=O)(=O)c3cn(C)cn3)cc2C1=O,2.7,8.8&11.0,-3.7&0.1,4.5&2.9,·,8.3,i,·,·
C[C@H]1CCCCO[C@@H](CN(C)CC2CCCCC2)[C@@H](C)CN([C@@H](C)CO)C(=O)c2cc(NC(=O)c3ccccc3)ccc2O1,-1.2,3.0,9.9,3.2,·,·,i,·,·
O=c1c2sc(-c3ccccc3)cc2nc2n1CCC2,·,·,·,·,·,-0.5,·,-1.5,0.659
CN(C)S(=O)(=O)N1CCC(Oc2ccc(C(=O)NC3CCOC(C)(C)C3)cc2)CC1 (stereo not drawn),-0.4,0.8,7.1,-0.2,·,1.5,i,1.4,0.675

# Remaining list, next part:
SMILES,MLL AF4-AF9 inh,Ecoli rRNA inh,Ecoli rRNA inh OD600,Ecoli rRNA inh RFP,Vif A3G,HNF4A DNA FP,FGF22 binding,ALR inh,Ecoli growth
CO[C@H]1CC[C@@H]2CCN(C)C(=O)[C@H](C)[C@H](OC)CN(C)C(=O)c3cccc(C#N)c3OC[C@@H]1O2,-2.4,1.4,4.5,-4.6,·,·,i,·,·
Cc1cc2occ(CC(=O)N(C)CC(=O)Nc3ccc(F)cc3)c2cc1C,-23.1,1.0,4.6,-1.6,4.5%,-1.1,i,-1.1,0.579
CCN(CC)Cc1c(C(=O)N/N=C/c2ccncc2)nnn1-c1nonc1N,-3.3,13.6,12.5,4.5,-2.5%,50.0*,i,-4.8,·
S=C(c1c[nH]c2ccccc12)N1CCOCC1,-0.5,1.2,9.1,-1.5,-2.9%,-4.3,i,18.9,0.659
O=C(C[C@@H]1CC[C@@H](NC(=O)Cc2cccnc2)[C@H](CO)O1)Nc1ccc(-c2ccccc2)cc1,-11.3,-8.7,-11.7,2.3,·,·,i,·,·
COc1cc2c(Cc3ccccc3)cncc2cc1O,-1.6,-21.7,-51.1,7.6,7.3%,-0.2,i,·,0.596
C[C@@H]1CN([C@@H](C)CO)C(=O)Cc2cc(NC(=O)Nc3ccc4c(c3)OCO4)ccc2O[C@H]1CN(C)C(=O)Nc1cccc2ccccc12,2.9,-5.1,-1.5,-3.4,·,·,i,·,·
Cc1cccc(-c2noc(CN(C(=O)C34CC5CC(CC(C5)C3)C4)C(C)C)n2)c1,·,·,·,·,0.8%,0.2,·,4.7,0.784
COC(=O)C1CCN(C(=O)COC(=O)c2ccc(=O)n(Cc3ccccc3)n2)CC1,-3.0,10.4,6.3,-1.8,-2.6%,0.3,i,·,0.699
Cc1cccc(S(=O)(=O)N2CCCCN3[C@H](CO)[C@H](c4ccc(-c5ccncc5)cc4)[C@H]3C2)c1,1.8,-4.7,-43.0,26.6,·,·,i,·,·
CN1CCN(C(=O)N2c3ccccc3CCc3ccccc32)CC1,1.3,4.1,11.0,-3.1,-0.4%,0.2,i,-2.3,0.667
COc1ccc2oc(C(=O)OCC(=O)NC(=O)NC(C)C)c(C)c2c1,·,·,·,·,10.8%,3.2,·,-6.9,0.73
CCOc1ccccc1CN1CCNC(=O)C1CC(=O)NCCCn1cccn1 (stereo not drawn),-0.9,14.0,11.8,1.7,6.3%,0.1,i,-15.4,0.686
CC1=C(C(=O)Nc2ccccc2C)C(c2ccc(C)o2)NC(=S)N1 (stereo not drawn),·,·,·,·,·,2.3,·,6.4,0.7
C[C@H](NC(=O)[C@@H]1[C@@H](CO)[C@@H]2Cn3c(ccc(-c4ccccc4F)c3=O)[C@H]1N2C)c1ccccc1,0.2,0.2,-4.9,2.8,·,·,i,·,·
CCCNC(=O)Cc1c(O)c2ccccc2[nH]c1=O,·,·,·,·,-0.8%,-1.4,·,5.7,0.622
CCOc1cccc2sc(=NC(=O)c3ccco3)n(CC(=O)OC)c12,-5.4,3.9,-7.3,1.4,-11.0%,-1.1,i,5.7,0.699
CCOC(=O)Cn1nnc2c(sc3nc4c(c(-c5ccccc5)c32)CCC4)c1=O,·,·,·,·,-3.2%,3.6,·,0.8,0.681
CC(C)NC(=O)N[C@@H]1CC[C@H](CC(=O)O)O[C@@H]1CO,-3.0,3.9,6.4,-0.9,·,·,i,·,·
Cc1nn(C(=O)c2c(-c3ccccc3)noc2C)c(C)c1N=Nc1cc(C(F)(F)F)cc(C(F)(F)F)c1,-5.7,8.7,6.5,-0.8,21.9%,1.4,i,-1.0,0.693
COc1ccc(NS(=O)(=O)c2cc(NC(=O)c3ccc(S(=O)(=O)N(C)C)cc3)ccc2N2CCOCC2)cc1,-0.8,7.1,6.8,0.7,-3.5%,2.4,i,0.7,0.664
Cc1c(C(=O)N2CCCC2)oc2ccc(Br)cc12,-4.2,-30.1*,-20.1*,-1.0*,·,-2.6,i,-6.5,0.701
C=CCSc1nc2ccsc2c(=O)n1-c1cccnc1,1.5,9.1,-1.8,-2.6,·,4.2,i,-9.1,0.704
CCOc1ccc(CCNC(=O)COC(=O)c2[nH]c(C)c(C(C)=O)c2C)cc1OCC,1.2,·,·,·,-0.2%,2.7,i,·,·
Cc1ccc(S(=O)(=O)N2CCCN(c3nccc(C(F)(F)F)n3)CC2)cc1,0.0,9.9,12.2,6.8,0.1%,-2.1,i,3.6,0.641

# Other records.
SMILES,MLL AF4-AF9 inh,Ecoli rRNA inh,Ecoli rRNA inh OD600,Ecoli rRNA inh RFP,Vif A3G,HNF4A DNA FP,FGF22 binding,ALR inh,Ecoli growth
Cc1noc(C(=O)Nc2cccc(O)c2)c1Cl,-9.7,-0.9,3.2,-7.5,-5.2%,-0.9,i,·,0.658
Cc1ccc(CNC(=O)CCS(=O)(=O)c2ccc3c(c2)NC(=O)C(C)S3)cc1 (stereo not drawn),3.5,4.2,4.7,2.2,12.6%,-6.5,i,-2.3,0.662
COc1ccc(CNC(=O)C[C@@H]2CC[C@H]3[C@H](COc4ccc(NC(=O)C(C)C)cc4C(=O)N3C)O2)cc1,-0.8,3.1,7.2,-2.7,·,·,i,·,·
Cc1cccc(N2CCN(C(=O)NCc3ccc(Cl)cc3)CC2)c1,·,·,·,·,26.5%,2.9,·,0.2,0.695
Nc1ccc(C(=O)N2CCN(S(=O)(=O)c3ccc(Cl)cc3)CC2)cc1[N+](=O)[O-],·,·,·,·,0.8%,0.1,·,8.6,0.652
O=C(NC(c1cccnc1)c1ccc2c(c1)OCO2)C1CCN(CCOc2ccc(Cl)cc2Cl)CC1 (stereo not drawn),-7.8,-54.4,-78.3,-14.8,·,2.3,i,·,·
COc1ccccc1N=Nc1c(C)n[nH]c1C,6.7,-6.8,-4.4,-2.5,3.9%,4.4,i,7.6,0.686
CCc1ccc(OCc2nc(-c3ccccn3)no2)c(Br)c1,·,·,·,·,-2.6%,13.6,·,8.7,0.695
Cc1cc(Br)cn2c(Cc3cccc(F)c3)c(-c3ccco3)nc12,5.5,-5.3,-9.1,10.6,·,·,i,·,·
CC(Sc1n[nH]c(N)n1)C(=O)Nc1cccc2ccccc12 (stereo not drawn),0.8,6.0,-5.3,1.3,-6.2%,-1.9,i,-16.0,0.624
O=C(CCC(=O)N1CCN(c2ccc(Cl)c(Cl)c2)CC1)c1ccccc1,-19.8,-8.0,-27.3,-4.3,-2.3%,-2.0,i,-13.5,0.716
Cc1ccc(S(=O)(=O)C2(C(=O)N3CCN(c4ccccc4F)CC3)CC2)cc1,-5.5,-3.9,-5.9,-1.4,·,-4.1,i,0.7,0.703

# Record cards (already shown). Order of values: MLL AF4-AF9 inh | Ecoli rRNA inh | Ecoli rRNA inh OD600 | Ecoli rRNA inh RFP | Vif A3G | HNF4A DNA FP | FGF22 binding | ALR inh | Ecoli growth
# Nc1ccc(C(=O)N2CCN(S(=O)(=O)c3ccc(Cl)cc3)CC2)cc1[N+](=O)[O-] in the list: · | · | · | · | 0.8% | 0.1 | · | 8.6 | 0.652
# Cc1cc(Br)cn2c(Cc3cccc(F)c3)c(-c3ccco3)nc12 in the list: 5.5 | -5.3 | -9.1 | 10.6 | · | · | i | · | ·

# Screening results deposited in PubChem BioAssay by several laboratories.
